Bioassay records as filed in PubChem BioAssay.
N370S GC mod – N370S glucocerebrosidase modulation, Gaucher chaperone candidate | 330,000 tested, 0.092% active | Potency, µM (top dose mostly 59.4 µM), for inactives: top-dose activity change, negative = inhibition, most hits filed as inhibitors | N370S GC spleen homogenate, 4MU-glucoside fluorescence | AID 2101;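 also: 0% = full enzyme activity and -100% = no enzyme basal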
TDP1 block – TDP1 (human) enzyme inhibition. Q9NUW8. recombinant TDP1, AlphaScreen DNA substrate cleavage. Potency, µM (doses to about 130 µM), for inactives: at the top dose activity change, negative = inhibition, usual class: inhibitors. 350,000 tested, 0.28% active. AID 485290; also: nearly all actives have a fitted effect of over 40% in size
Target sequence (Q9NUW8 whole entry, looked up): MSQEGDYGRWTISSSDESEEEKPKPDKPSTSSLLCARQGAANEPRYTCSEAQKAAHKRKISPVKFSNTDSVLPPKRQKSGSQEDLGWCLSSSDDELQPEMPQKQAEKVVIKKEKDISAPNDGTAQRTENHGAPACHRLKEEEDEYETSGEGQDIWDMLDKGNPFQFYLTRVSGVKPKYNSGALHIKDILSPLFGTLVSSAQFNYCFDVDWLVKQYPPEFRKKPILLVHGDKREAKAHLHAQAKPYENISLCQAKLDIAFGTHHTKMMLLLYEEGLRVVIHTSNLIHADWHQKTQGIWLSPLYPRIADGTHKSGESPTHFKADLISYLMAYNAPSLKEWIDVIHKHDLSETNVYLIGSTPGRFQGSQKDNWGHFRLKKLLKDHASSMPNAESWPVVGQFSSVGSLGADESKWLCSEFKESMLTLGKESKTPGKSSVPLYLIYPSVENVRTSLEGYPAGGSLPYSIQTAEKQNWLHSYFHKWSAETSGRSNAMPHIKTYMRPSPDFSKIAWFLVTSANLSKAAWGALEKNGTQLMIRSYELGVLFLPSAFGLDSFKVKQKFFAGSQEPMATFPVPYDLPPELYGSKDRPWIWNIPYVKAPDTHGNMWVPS
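E. coli-derived human Tdp1, 1 nM final. Cpd preinc 15 min RT; substrate 15 nM final, 5 min RT; AS bead mix 10 ug/ml final, 10 min RT. Signal loss = tyrosine-FITC cleavage. No-enzyme wells = max signal.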
An asterisk follows results filed as active; ? = inconclusive; · = no result given; [ ] = remark or other dose. Calls follow the shape of the dose curve; as a rule, active = well fitted curve in the direction sought with a large enough effect; inconclusive = small, poorly fitted or top-dose-only effect, or another doubt; inactive = no such curve, though single readings can be large; an effect the other way counts as inactive or inconclusive. Unless noted, % is scaled to controls: 0 for no effect and ±100 for the full control effect; potency is read from the fitted curve at half-maximal effect.

Below each SMILES: N370S GC mod, TDP1 block
(1) O=C(c1ccc(CS(=O)(=O)c2ccccc2)o1)N1CCN(c2ncccn2)CC1
 : 4.8%, 0.0%
(2) C=C(C)C1Cc2nc(N)nc(C)c2C1 (stereo unspecified)
 : 7.0%, -2.1%
(3) Cc1nc(Cl)c(C(=O)NCCC(C)C)c(C)c1[N+](=O)[O-]
 : -2.2%, -7.9%
(4) O=[N+]([O-])c1ccccc1S(=O)(=O)Nc1ccc(-c2ccc(N3CCOCC3)nn2)cc1
 : -22.0%, ?
(5) CCCC(C(=O)NCc1ccccc1)N(C(=O)Cn1nnc(-c2cccs2)n1)c1ccc2c(c1)OCCO2 (stereo unspecified)
 : 5.9%, -2.4%
(6) CCN(CC)c1ccc(NC(=O)c2ccccc2OCC(=O)OC)cc1
 : -7.2%, 3.7%
(7) CC(C)(C)c1cc(=O)[nH]c(SCc2ccccc2)n1
 : 5.0%, 0.0%
(8) N/C(=N\OC(=O)CCC1CCCCC1)c1ccc([N+](=O)[O-])cc1
 : 4.7%, 5.9%
(9) ClCc1nc2ccccc2c2ccccc12
 : -0.1%, 9.9%
(10) CCCCCCCCC(=O)Nc1cc(C)ccc1OC
 : 4.3%, ·
(11) O=C(CCCn1c(=O)c2ccccc2n(CC(=O)N2CCN(c3ccccc3)CC2)c1=O)NCc1ccco1
 : -10.0%, 4.6%
(12) CCOC(=O)c1cc2sccc2n1CCCN1C(=O)c2ccccc2C1=O
 : 20.4%, -2.1%
(13) O=C1CC(c2ccccc2)c2ccccc21 (stereo unspecified)
 : 1.8%, 0.0%
(14) O=C(NCCCN1CCCCC1)C1CCCN(c2ncnc3c2nc2n3CCCCC2)C1 (stereo unspecified)
 : 1.6%, 0.7%
(15) COc1ccccc1-n1cnc2cc(NCc3ccco3)ccc21
 : -6.7%, 10.3%
(16) O=C(CCC(=O)Nc1ccc(Br)cc1)N/N=C/c1ccc(O)cc1
 : 0.5%, ·
(17) Cn1c(=O)n(C)c2cc(S(=O)(=O)NCCO)ccc21
 : -28.9%, -3.9%
(18) CS(=O)(=O)c1cccc(-c2nnc(NC(=O)c3ccc(S(=O)(=O)N4CCCC4)cc3)o2)c1
 : -0.9%, ·
(19) Cc1nc(NC(=O)COC(=O)c2cc3c(s2)CCC(C)C3)c(Cl)cc1Cl (stereo unspecified)
 : -3.1%, -2.7%
(20) C/C(=N\NC(N)=S)C1(C)CC2(CC(C)(C)OC2=O)C(=O)O1 (stereo unspecified)
 : 6.3%, 5.5%

Below each SMILES: N370S GC mod, TDP1 block
(21) Cc1ccc(N(C(=O)CS(=O)CC(=O)Nc2ccc(F)cc2)C(C)C(=O)NC(C)(C)C)cc1 (stereo unspecified)
 : -1.9%, 11.9%[0.0935 µM]
(22) CCc1cc(-c2nc(N)ncc2-c2ccc(Br)cc2)c(O)cc1OC
 : -16.4%, 5.0%
(23) COc1ccccc1NC(=O)C1C2C=CC3(CN(Cc4cccnc4)C(=O)C13)O2 (stereo unspecified)
 : -6.1%, 3.7%
(24) O=C(NCc1ccc(F)cc1)C(c1ccccc1)N(C(=O)c1csnn1)C1CC1 (stereo unspecified)
 : 1.6%, 0.0%
(25) O=C(O)CN1C(=O)C(=O)N(Cc2cccc(F)c2)C1=O
 : -0.5%, ·
(26) Cn1c(SCC2CCCO2)nnc1-c1ccc([N+](=O)[O-])cc1 (stereo unspecified)
 : -3.6%, 2.5%
(27) COc1ccc(NC(=S)N2C3CCC2CC(NC(=O)NC24CC5CC(CC(C5)C2)C4)C3)c(OC)c1 (stereo unspecified)
 : 0.0%, 2.6%
(28) CCCCC(C(=O)O)C(C)CC(=O)NNC(=O)c1ccco1 (stereo unspecified)
 : -0.7%, -2.8%
(29) CC(C)NC(=O)CSc1nnc(-c2ccco2)n1N
 : 3.2%, 2.9%
(30) Cc1ccc(NC(=O)CS(=O)Cc2nc(-c3ccc(C)cc3)oc2C)cc1 (stereo unspecified)
 : 25.2%, 2.5%
(31) O=C(Nc1cccnc1Cl)c1noc2c1CCc1ccccc1-2
 : -7.1%, 0.0%
(32) O=C(NCCN1CCOCC1)C(=O)NCC1OCCCN1S(=O)(=O)c1cc(F)ccc1F (stereo unspecified)
 : 0.2%, 3.6%
(33) COC(=O)c1cccc(NS(=O)(=O)c2ccc(OC)c(OC)c2)c1C
 : 0.8%, 2.0%
(34) COc1ccc2oc(=Nc3cccc(F)c3)c(C(N)=O)cc2c1
 : -7.0%, 5.4%
(35) Cc1c(C(=O)N2CCCC2)oc2c1-c1[nH]ncc1CC2
 : 13.1%, 3.9%
(36) CC(=O)Oc1ccc(-c2cccc(C(=O)NCCCO)c2)cc1
 : 10.6%, 1.2%
(37) Cc1ccc2c(c1)N(S(=O)(=O)c1cc(-c3cc(C)no3)ccc1C)CCO2
 : -8.7%, -2.9%
(38) COc1ccc(C(C)=O)cc1COC(=O)CNC(=O)c1cc(C)cc(C)c1
 : 7.2%, 0.0%
(39) CCOc1c(Nc2ccccc2O)c(=O)c1=O
 : 0.3%, 2.5%
(40) COC(=O)C(NC(=O)c1ccccc1)(Nc1nccs1)C(F)(F)F (stereo unspecified)
 : 3.2%, -5.0%

Below each SMILES: N370S GC mod, TDP1 block
(41) CN1CCN(C(=O)c2cnn(-c3ccccc3)c2NC(=O)c2ccccc2Br)CC1
 : 0.8%, -0.8%
(42) Cc1nc(NC(=O)CN2CCN(c3ccccc3F)CC2)sc1C(=O)N(C)C
 : -7.4%, ·
(43) COCCN1Cc2cccc(C(=O)Nc3cccc(C)c3C)c2C1=O
 : 9.1%, 1.8%
(44) CC1=NNC(=O)C1CC(=O)N/N=C(\C)c1ccco1 (stereo unspecified)
 : 0.3%, 2.6%
(45) COc1ccc(-c2noc(CNC(=O)c3ccc4c(c3)OCO4)n2)cc1
 : -4.6%, -3.3%
(46) COc1ccc(N2CCN(C(=O)c3ccc4ccccc4n3)CC2)cc1
 : 8.1%, -1.2%
(47) Cc1cc(NC(=O)C(C)N2C(=O)c3ccccc3S2(=O)=O)no1 (stereo unspecified)
 : -2.2%, ·
(48) COc1cccc(/C=C(\C)C(=O)c2c(C)cc(C)[nH]c2=O)c1OC
 : -0.2%, ·
(49) O=C(COC(=O)c1ccccc1Nc1ccc(SC(F)F)cc1)NCc1ccco1
 : -2.7%, 1.0%
(50) COc1ccc(C(=O)N/C(=C\c2cccs2)c2nc3ccccc3[nH]2)cc1OC
 : -18.4%, 6.4%
(51) O=C(Nc1ccccc1-c1nnn(CC(=O)N2CCN(c3ccccc3)CC2)n1)c1cccs1
 : 26.3%, -3.1%
(52) CC1(C)CC(=O)N(c2ccccc2)C1(C)O (stereo unspecified)
 : 6.0%, 0.0%
(53) CC(C)[C@H](NC(=O)[C@@H]1Cc2ccccc2CN1)C(=O)NC1CCCCC1
 : -0.3%, 4.2%
(54) Cc1nc(N2CCN(C)CC2)c2c(C)c(C(=O)Nc3ccc(F)cc3)sc2n1
 : 2.4%, 0.0%
(55) O=C(CNC(=O)c1ccc(Br)o1)NNC(=O)c1ccc(Cl)cc1
 : ·, -5.4%
(56) N#C/C(=C\c1ccc(-c2ccccc2[N+](=O)[O-])o1)C(N)=O
 : -0.4%, -5.9%
(57) CN1CCN(C(=S)SCC(=O)Nc2nc(-c3ccccc3)c(-c3ccccc3)o2)CC1
 : 9.6%, -3.0%
(58) Cc1ccc(C)c(OCCOCCN2CCOCC2)c1
 : 2.9%, -2.1%
(59) O=C(CNC(=O)c1ccccc1)NCC(c1ccco1)N1CCCC1 (stereo unspecified)
 : ·, 0.1%
(60) O=C(Nc1nc2ccsc2c(=O)s1)C1CCC1
 : -4.6%, -2.6%

Below each SMILES: N370S GC mod, TDP1 block
(61) COc1cc2c(cc1OC)C(C)=NCC2
 : 7.6%, 4.8%
(62) Cc1cc(C)n(Cc2ccc(Cl)c(Cl)c2)c(=O)c1S(=O)(=O)c1ccccc1
 : 5.9%, 2.8%
(63) O=C(Nc1ccc(N2CCN(C(=O)c3ccc(Cl)cc3)CC2)cc1)c1cccnc1
 : -0.8%, 9.1%
(64) COc1ccc(-c2ccc3nnc(SCC(=O)Nc4ccc(NC(C)=O)cc4)n3n2)cc1
 : -3.0%, ·
(65) C=CCNCCCCOc1c(Cl)cc(C)cc1Br
 : -8.3%, 0.0%
(66) COC(=O)c1ccc2[nH]cc(CCO)c2c1
 : 4.0%, ·
(67) CC(C)(C)NC(=O)CSc1nc(O)cc(=O)[nH]1
 : 2.3%, 0.0%
(68) COC(=O)c1cc(OC)c(OC)cc1NC(=S)N1CCN(C/C=C/c2ccccc2)CC1
 : -17.7%, 9.6%
(69) Cc1ccc(-c2nnc(SCC#CCOC(=O)c3ccco3)o2)cc1
 : ·, -3.4%
(70) CCC1CCCCN1CCNC(=O)C1CCN(S(=O)(=O)c2c(C)noc2C)CC1 (stereo unspecified)
 : 11.8%, 0.0%
(71) CN(Cc1cccs1)C(=O)CSc1nc2ccccc2[nH]1
 : 2.4%, 2.3%
(72) CCc1cccc(C)c1NC(=O)COC(=O)Cc1ccsc1
 : -20.1%, -1.9%
(73) c1ccc(-c2nc(CSc3nnnn3-c3ccccc3)cs2)cc1
 : ?, ·
(74) CC(C)NC(=S)N/N=C/c1ccc(C(C)(C)C)cc1
 : -6.1%, 4.6%
(75) Cc1ccc(C(=O)Nc2ccc(NC(=O)c3ccco3)c(C)c2)cc1
 : 11.5%, -0.3%
(76) CN1CCSc2ccc(C(=O)Nc3ccc(Cl)cc3)cc21
 : 10.7%, ·
(77) CN(CC(=O)Nc1ccc(F)cc1)C(=O)c1cccc(S(=O)(=O)N2CCN(c3ccccc3)CC2)c1
 : -14.3%, -3.4%
(78) O=C(Nc1ccc(N2CCN(C(=O)c3ccccc3)CC2)cc1)c1cc2ccccc2o1
 : -3.8%, 6.5%
(79) CC1(C)CC(=O)C(C=NCCN2CCN(C(=S)NC3CCCCC3)CC2)=C(O)C1
 : 6.5%, 5.6%
(80) CC(=O)Nc1sc(-c2ccccc2)nc1-c1ccccc1
 : 2.6%, 0.0%

In the list so far, 5 contain a nitro group on carbon.
Below each SMILES: N370S GC mod, TDP1 block
(3) Cc1nc(Cl)c(C(=O)NCCC(C)C)c(C)c1[N+](=O)[O-]
 : -2.2%, -7.9%
(4) O=[N+]([O-])c1ccccc1S(=O)(=O)Nc1ccc(-c2ccc(N3CCOCC3)nn2)cc1
 : -22.0%, ?
(8) N/C(=N\OC(=O)CCC1CCCCC1)c1ccc([N+](=O)[O-])cc1
 : 4.7%, 5.9%
(26) Cn1c(SCC2CCCO2)nnc1-c1ccc([N+](=O)[O-])cc1 (stereo unspecified)
 : -3.6%, 2.5%
(56) N#C/C(=C\c1ccc(-c2ccccc2[N+](=O)[O-])o1)C(N)=O
 : -0.4%, -5.9%

Next records
Below each SMILES: N370S GC mod, TDP1 block
(81) Cn1c(C(=O)N2CCC(C(=O)N3CCN(c4ccccc4)CC3)CC2)cc2sccc21
 : ·, 1.0%
(82) Cc1cc(-c2ccc(S(=O)(=O)N3CCN(C)CC3)s2)on1
 : 0.0%, 2.4%
(83) c1cncc(-c2nc(NCc3ccc4c(c3)OCO4)c3ccccc3n2)c1
 : -24.0%, 5.0%
(84) CCCCCCOc1ccc(OC(=O)c2ccncc2)cc1
 : 2.5%, 2.4%
(85) O=c1[nH][nH]c(-c2ccccc2)c1C=Nc1ccc(F)cc1F
 : -4.7%, 3.6%
(86) CCCc1cc2c(=O)c(-c3ccc4c(c3)OCCO4)coc2cc1OC(=O)c1ccco1
 : 5.5%, -2.0%
(87) CCc1cc(C(c2ccc(OC)c(OC)c2)N2CCOCC2)c(NC(=O)c2ccccc2)s1 (stereo unspecified)
 : 4.7%, 5.5%
(88) COc1cccc(-c2nn(-c3ccc(C)cc3)cc2C(=O)NCC(c2cccs2)N2CCOCC2)c1 (stereo unspecified)
 : -28.5%, ·
(89) COC(=O)COC(=O)c1ccc(O)cc1
 : 7.8%, 2.1%
(90) CCOC(=O)C1CCCN(C(=O)Nc2cccc(Cl)c2)C1 (stereo unspecified)
 : 4.1%, 2.2%
(91) COc1ccc(C2C(C#N)=C(N)OC3=C2C(=O)CC(C)(C)C3)cc1Cn1nc(C)c([N+](=O)[O-])c1C (stereo unspecified)
 : 8.9%, 5.4%
(92) CC(=O)c1c(C(C)=O)c(C)n(NC(=O)c2cccnc2)c1C
 : 4.9%, 1.0%
(93) CCN(CC)c1ccc2cc(C(=O)NNC(=O)c3ccc(S(=O)(=O)N4CCCCC4)cc3)c(=O)oc2c1
 : -10.7%, 1.4%
(94) O=C(NNC(=O)c1ccc([N+](=O)[O-])cc1)c1ccc(Br)cc1
 : -5.3%, ·

Looked up by structure from the entries so far, 5 records:
Below each SMILES: N370S GC mod, TDP1 block
(86) CCCc1cc2c(=O)c(-c3ccc4c(c3)OCCO4)coc2cc1OC(=O)c1ccco1
 : 5.5%, -2.0%
(83) c1cncc(-c2nc(NCc3ccc4c(c3)OCO4)c3ccccc3n2)c1
 : -24.0%, 5.0%
(94) O=C(NNC(=O)c1ccc([N+](=O)[O-])cc1)c1ccc(Br)cc1
 : -5.3%, ·
(87) CCc1cc(C(c2ccc(OC)c(OC)c2)N2CCOCC2)c(NC(=O)c2ccccc2)s1 (stereo unspecified)
 : 4.7%, 5.5%
(92) CC(=O)c1c(C(C)=O)c(C)n(NC(=O)c2cccnc2)c1C
 : 4.9%, 1.0%

The list is partial, and most or all hits are left out here.
